CBX7 inh: CBX7 inhibition, primary AlphaScreen; AlphaScreen His6-CBX7 / biotin-H3K27me3 peptide binding; stronger effect = lower value; 66,000 compounds, 1.1% hits; O95931; AID 1224903; normalised signal (fraction of DMSO) (concentration not given with the values); in the data active = normalised signal below about 0.5;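 note: 100 nL library stock added to about 20 µL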
Target sequence (O95931 whole entry, looked up): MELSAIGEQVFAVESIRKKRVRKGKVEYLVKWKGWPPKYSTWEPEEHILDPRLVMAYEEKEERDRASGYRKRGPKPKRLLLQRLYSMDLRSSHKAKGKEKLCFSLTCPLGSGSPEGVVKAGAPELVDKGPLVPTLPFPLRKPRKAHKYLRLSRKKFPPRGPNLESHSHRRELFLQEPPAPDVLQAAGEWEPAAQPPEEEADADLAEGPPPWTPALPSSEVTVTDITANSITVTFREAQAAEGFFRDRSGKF
CBX7 inh z-score: also measured in CBX7 inh; calls as there; z-score; measured here: z-score of CBX7 signal; some inactives read as strong as hits; reference of the scale not given here;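 same signal on another scale; lower means less binding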
* hit, by the source's call.

compound | CBX7 inh | CBX7 inh z-score
COc1ccc(CCNc2ccc3nncn3n2)c(OC)c1 | 0.957 | -1.19
O=C(CCNS(=O)(=O)c1ccc2c(c1)CCC(=O)N2)NCc1ccc(Cl)cc1 | 1.11 | 2.14
Cc1c(Cl)cccc1-c1ccc(C(=O)Nc2ccccn2)o1 | 1.09 | 4.15
CCCCc1nc(N2CCOCC2)c(C#N)c2c1CCCC2 | 1.02 | 0.646
O=C(Nc1ccccc1)c1cc(S(=O)(=O)Nc2ccccc2)cs1 | 0.933 | -1.15
CC(c1ccccn1)N(C(=O)Nc1ccc(Cl)c(Cl)c1)C1CCCCC1 (stereo not drawn) | 1.06 | 0.881
COCCNC(=O)C1CCN(c2cc(C)nc3c(-c4ccc(OC)c(OC)c4)c(C)nn23)CC1 | 1.01 | 0.308
O=C(NCc1ccccc1)c1nn2c(C(F)(F)F)cc(-c3cccs3)nc2c1Cl | 1.01 | 0.256
Cc1noc(/C=C/c2cccs2)c1S(=O)(=O)N1CCCC(C(=O)N2CCC(C)CC2)C1 (stereo not drawn) | 0.932 | -1.23
COc1cc(CNc2ccc3[nH]c(=O)[nH]c3c2)ccc1OCC(=O)NC(C)(C)C | 1.12 | 1.29
CC(C)CCNC(=O)CCn1nc(-c2ccc(Cl)cc2)ccc1=O | 1.07 | 1.29
O=C(CN1C(=O)CSc2ccccc21)NC1CCCCC1 | 0.984 | -0.479
O=C(NC1CCN(Cc2ccccc2)CC1)c1ccc2nc(N3CCOCC3)sc2c1 | 1.55 | 5.2
Cc1ccc(NC(=O)CCc2nnc3ccc(N4CCN(c5ccccc5)CC4)nn23)cc1 | 0.889 | -3.06
CC1(C)CC(=O)C2=C(C1)N(c1ccc(F)cc1)C(=O)CC2c1ccccc1 (stereo not drawn) | 1.21 | 1.98
CCCCN(CC)CCNc1c(N2CCN(C(=O)OCC)CC2)c(=O)c1=O | 1.04 | 0.65
N=c1n(Cc2ccccc2)c2ccccc2n1CC(O)c1ccc(Cl)cc1 (stereo not drawn) | 0.936 | -3.08
Cc1ccc2c(c1)N(CCC(=O)NCCCN1CCCCC1)C(=O)C(C)O2 (stereo not drawn) | 1.03 | 0.667
O=C(NCCCN1CCOCC1)c1ccc2c(c1)N(Cc1c(F)cccc1Cl)C(=O)CS2 | 1.01 | 0.52
CCCCNc1c(N2CCN(C(=O)OCC)CC2)c(=O)c1=O | 1.01 | 0.212
COc1cc(OC)c(NC(=O)CN2C(=O)CSc3ncccc32)cc1Cl | 1.07 | 0.166
CCOC(=O)c1c(C)n(C)c2cc(Br)c(OC)cc12 | 0.834 | -0.67
CC1CCCC(NC(=O)c2ccc3c(=O)n4c(nc3c2)CCCCC4)C1C (stereo not drawn) | 1.03 | 0.0362
O=C(C1CCN(c2nnc(-n3cccc3)s2)CC1)N1CCN(c2ccccc2)CC1 | 1.06 | 2.37
COc1ccc(CN2CCC(N3CCCCC3)CC2)cc1OC | 1 | 0.0682
Cc1cc(C)n2c(Nc3ccc4c(c3)OCCO4)c(-c3cccc(Br)c3)nc2n1 | 0.772 | -2.51
OCCNc1ncnc2c1c(-c1ccccc1)cn2-c1ccc(F)cc1 | 1.02 | 0.387
COc1ccc(-c2noc(CCC(=O)NCCCN3CCC(C)CC3)n2)cc1 | 0.86 | -2.01
CC1CCC(NC(=O)C2(C)CCC(=O)N2Cc2ccccc2Cl)CC1 (stereo not drawn) | 0.992 | -0.252
Cc1onc(-c2ccccc2)c1C(=O)NCC1CCCO1 (stereo not drawn) | 1.43 | 1.89
Fc1ccccc1Nc1nc2nonc2nc1Nc1ccccc1 | 0.952 | -0.883
CCCCN1CC(C(=O)NCCc2ccc(C)cc2)CC1=O (stereo not drawn) | 1.06 | 3.03
CCc1cccc(C)c1Nc1c(-c2cccc(O)c2)nc2nc(C)cc(C)n12 | 0.909 | -0.383
Cc1ccc(NC(=O)CS(=O)(=O)c2nc(-c3ccc(Cl)cc3)cn2-c2ccccc2)cc1 | 0.963 | -0.355
COc1ccc(NC(=O)c2c(NC(=O)c3ccccc3F)sc3c2CCC3)cc1 | 1.02 | 0.298
O=C(NC(C(=O)O)C12CC3CC(CC(C3)C1)C2)c1ccccc1 (stereo not drawn) | 1.12 | 1.91
COc1ccccc1N1CCN(C(=O)CNC(=O)Cn2ccc3ccccc3c2=O)CC1 | 0.991 | -0.0884
CCCc1nnc(NC(=O)CSc2nncn2C)s1 | 1.11 | 0.224
COc1ccc2c(c1)CCc1c(C(=O)N(C)c3ccccc3)noc1-2 | 0.966 | -0.274
Cc1c(C(=O)NCCN2CCOCC2)sc2nc(-c3ccc(F)cc3)cn12 | 0.955 | -1.48
Clc1ccc2[nH]c3c(c2c1)CN(Cc1ccccc1)CC3 | 0.92 | -3.56
O=C(NCc1ccc2c(c1)OCO2)c1cnn2c(C(F)F)cc(-c3ccccc3)nc12 | 0.981 | -0.542
Cc1cc(C)cc(-n2nc3c(c2NC(=O)c2ccc(S(=O)(=O)N(C)C)cc2)CSC3)c1 | 1.04 | 0.9
CCCCCc1c(O)nc(SCCN(CC)CC)[nH]c1=O | 1.03 | 1
CCOC(=O)N1CCN(C(=O)Cc2c(C(=O)O)[nH]c3ccc(Cl)cc23)CC1 | 1.16 | 1.52
Cc1nc2c(C(=O)NCCN(C)C)cnn2c(C)c1Cc1c(F)cccc1Cl | 0.968 | -0.587
COc1cc2[nH]c(=O)n(CCCC(=O)NCc3cccc(Cl)c3)c(=O)c2cc1OC | 1.08 | 2.01
O=C(CSc1n[nH]c(-c2ccncc2)n1)c1ccc(F)cc1 | 0.972 | -0.0567
O=C1c2ccccc2C(Nc2ccccc2)N1c1cccnc1 (stereo not drawn) | 1.08 | 1.39
Cc1cccc(CCNC(=O)c2c[nH]c3ccc(S(=O)(=O)Nc4ccccc4F)cc3c2=O)c1 | 0.831 | -3.17
COC(=O)c1cccc(C(=O)Nc2cccc(F)c2)n1 | 0.961 | -0.966
COc1ccccc1NC(=O)CSc1nnc(Cc2cc(=O)[nH]c(=O)[nH]2)n1-c1cccc(C)c1 | 1.03 | 1.12
O=C(CN1C(=O)COc2cc(S(=O)(=O)N3CCCC3)ccc21)NCc1cccs1 | 0.887 | -2.33
C=CCNS(=O)(=O)c1ccc2[nH]c(=O)[nH]c2c1 | 0.978 | -0.265
CCCCNC(=O)CCc1c(C)nc2c(c(C)nn2-c2ccc(C)cc2)c1C | 1.15 | 1.14
O=C(COc1ccc(Cl)cc1)Nc1cccc(-c2nc3ncccc3o2)c1 | 1.03 | 0.648
Fc1ccc(CSc2nc3ccncc3n2Cc2ccc(Cl)cc2)cc1 | 0.969 | -1.49
CCOC(=O)c1oc2ccccc2c1NC(=O)c1ccccc1C(F)(F)F | 1.03 | 0.92
COc1ccc(Cn2c(CCC(=O)Nc3ccc(Cl)cc3)nc3cccnc32)cc1 | 1 | 0.00825
Cc1cccc(N2CCN(C(=O)c3cnn4c(C)c(Cc5ccccc5C)c(C)nc34)CC2C)c1 (stereo not drawn) | 0.772 | -6.28

Further records follow.
smiles,CBX7 inh,CBX7 inh z-score
CCC(=O)N1c2ccc(S(=O)(=O)NCCOC)cc2CC1C (stereo not drawn),0.97,-0.121
COc1cccc(-c2nn(C)c3sc(C(=O)NCCc4ccc(Cl)cc4)cc23)c1,1.18,5.03
CSc1cccc(Nc2cc(C(=O)NCCCN(C)c3ccccc3)c3ccccc3n2)c1,1,0.0432
CCCc1nnc(NC(=O)Nc2ccc(Br)cc2)s1,1.04,0.589
CN(C)c1ccc(CNC(=O)c2ccc(CNc3c(N4CCCCC4)c(=O)c3=O)cc2)cc1,0.886,-0.262
CCC1=Nc2cc(C(=O)N(C)CC(OC)OC)ccc2Sc2ccc(C)cc21,0.69,-5.84
CCc1ccc(NC(=O)c2cnn(-c3ccc(F)cc3)c2C2CCNCC2)cc1,1.01,0.531
O=C(NC1CC1)c1ccc2c(c1)N(Cc1cccc(Cl)c1)C(=O)CS2,1.01,0.583
O=C(Nc1cccc2ccccc12)N1CC=C(n2c(=O)[nH]c3ccccc32)CC1,1.01,0.271
Cc1ccc(C)c(-n2c(Cc3cc(=O)[nH]c(=O)[nH]3)nnc2SCC(=O)NCc2ccc(F)cc2)c1,1.11,0.223
COc1ccc(CCNC(=O)Nc2ccc3snnc3c2)c(OC)c1,0.976,-0.952
Cc1cccc(Nc2nc(-c3ccccc3)nc3ccccc23)c1,1.2,7.97
CN(C)c1ccc(-c2nc3ccccn3c2Nc2ccc3c(c2)OCCO3)cc1,0.866,-5.03
Cc1ccccc1Nc1c(-c2ccc(Cl)cc2)nc2cccc(C)n12,0.935,-0.659
Cc1ccc(C)c(CN2C(=O)c3ccccc3S(=O)(=O)c3ccc(C(=O)NC(C)C)cc32)c1,1.02,0.623
COc1ccc(NC(=O)c2oc3ccc(S(=O)(=O)N4CCOCC4)cc3c2C)c(OC)c1,0.887,-1.55
O=c1cc(N2CCN(c3ccc(F)cc3)CC2)[nH]c(=O)n1-c1ccc(Cl)cc1,0.961,-0.225
CCC(=O)NCCc1nc2ccccc2n1C(C)C,1.01,0.146
O=C(Nc1cccc(Cl)c1)c1cc(-c2cccc(Cl)c2)on1,1.04,0.583
CN1CCN(C(=O)c2cc(-c3ccc(Cl)c(Cl)c3)on2)CC1,0.978,-0.599
CC1(C)Cc2nc(N3CCCC3)c(C#N)cc2CO1,0.956,-0.585
COC(=O)c1cc2occc2n1Cc1ccc(C)cc1,0.932,-2
COc1ccc(-n2nc3c(c2NC(=O)c2ccc(N4C(=O)CCC4=O)cc2)CSC3)cc1,0.956,-1
Cc1nc2c(-c3ccc(F)cc3)c(C)nn2c(C)c1CCC(=O)NCCCOC(C)C,1.01,0.292
Cc1ccc(-c2nc3ccccn3c2Nc2ccc3c(c2)OCO3)cc1,0.35*,-5.21*
CCn1c(=O)cc(OCC(=O)Nc2ccccc2OC)c2ccccc21,0.881,-1.94
CCOc1ccc(-c2nc(C#N)c(N3CCC(C)CC3)o2)cc1,0.551,-10.2
Cc1ccc(C)c(NC(=O)c2csc3c2CCCC3)c1,1,0.116
COc1ccc(-n2ncc3c(NCc4ccccn4)ncnc32)cc1,0.999,-0.00107
COc1ccccc1-c1cc(C(=O)NC(C)C)no1,1.03,0.0317
Cc1ccc2c(c1)c1c(n2CC(O)CNc2ccccc2)CCCC1 (stereo not drawn),0.842,-5.12
COc1ccc(C2Nc3ccccc3NC3=C2C(=O)CCC3)cc1OC (stereo not drawn),1.12,1.29
O=C(NCCN1CCOCC1)c1cc2nc(-c3ccc4c(c3)OCO4)cc(C(F)(F)F)n2n1,0.976,-0.233
O=C(O)c1ccc2c(c1)C(=O)N(Cc1cccnc1)C2=O,1.04,0.517
Cc1onc(-c2c(Cl)cccc2Cl)c1C(=O)NC1=NCCS1,0.979,-0.333
COc1ccc(N2CCN(C(=O)CC3(CC4=NS(=O)(=O)c5ccccc5N4)CCCC3)CC2)cc1,0.884,-1.22

Grouped by structure: the entries above with two or more sulfur atoms (five)
smiles,CBX7 inh,CBX7 inh z-score
O=C(Nc1ccccc1)c1cc(S(=O)(=O)Nc2ccccc2)cs1,0.933,-1.15
Cc1noc(/C=C/c2cccs2)c1S(=O)(=O)N1CCCC(C(=O)N2CCC(C)CC2)C1 (stereo not drawn),0.932,-1.23
CCCc1nnc(NC(=O)CSc2nncn2C)s1,1.11,0.224
Cc1cc(C)cc(-n2nc3c(c2NC(=O)c2ccc(S(=O)(=O)N(C)C)cc2)CSC3)c1,1.04,0.9
O=C(CN1C(=O)COc2cc(S(=O)(=O)N3CCCC3)ccc21)NCc1cccs1,0.887,-2.33

The list continues.
smiles,CBX7 inh,CBX7 inh z-score
COCCCNC(=O)c1ccc2c(c1)N(Cc1ccccc1C)C(=O)c1ccccc1S2=O (stereo not drawn),1.03,1.37
Clc1ccc(-c2nc(N3CCOCC3)nc3ccccc23)cc1,1.29,11.8
Cc1nc2c(C(=O)NC3CCCc4ccccc43)cnn2c(C)c1Cc1ccccc1Cl (stereo not drawn),1.01,0.307
COc1cccc(C2CC(=O)NC3=C2C(=O)CC(C)(C)C3)c1OC (stereo not drawn),1,0.0232
Cc1ccccc1Cc1c(C)nc2c(C(=O)N3CCN(c4cc(Cl)ccc4C)CC3)cnn2c1C,0.647,-9.71
Cc1ccc(S(=O)(=O)Nc2nc(N3C(=O)c4ccccc4C3=O)n(-c3ccccc3)n2)cc1,1.23,2.23
CCC(C)NC(=O)C1CC(=O)N(CCc2ccc(C)cc2)C1 (stereo not drawn),1.17,3.27
COCCN1C(=O)Cn2cccc2C1C(=O)NC1CCCCC1 (stereo not drawn),1.07,1.49
O=C(COc1nsnc1N1CCOCC1)Nc1cccc(C(F)(F)F)c1,1.04,0.679
COc1ccc(N2Cc3cccc(C(=O)Nc4ccc(C(C)C)cc4)c3C2=O)cc1,0.738,-4.86
CCC(C)NC(=O)C1(C)CCC(=O)N1Cc1ccccc1Cl (stereo not drawn),1.17,2.23
Cc1cc(C)cc(NC(=O)CN(C)S(=O)(=O)c2cccc3cccnc23)c1,1.06,1.47
CCN(CC)S(=O)(=O)c1ccc(C(=O)Nc2ccccc2-c2nc3ccccc3[nH]2)cc1,1.06,0.652
CCN(CC)CCCNC(=O)CCn1nc(-c2ccc(Cl)cc2)ccc1=O,1.06,1.21
Cc1nc2cc(C(=O)N3CCOCC3)ccc2n1-c1ccc(Br)cc1,1.02,0.627
CCC1Oc2ccccc2N(CC(=O)NCCCOC(C)C)C1=O (stereo not drawn),0.982,-0.921
CCOc1ccc(-c2cc(C(=O)NCCN3CCCC3)c3ccccc3n2)cc1,1.04,2.23
O=C1c2ccccc2C(Nc2cccc(C(F)(F)F)c2)N1c1ccc(Cl)cn1 (stereo not drawn),0.918,-2.21

Full records, quoted from the list. Values in the order: CBX7 inh, CBX7 inh z-score
Entry for Cc1nc2c(C(=O)NCCN(C)C)cnn2c(C)c1Cc1c(F)cccc1Cl = 0.968, -0.587
Entry for CCOC(=O)c1c(C)n(C)c2cc(Br)c(OC)cc12 = 0.834, -0.67
Entry for CCC1=Nc2cc(C(=O)N(C)CC(OC)OC)ccc2Sc2ccc(C)cc21 = 0.69, -5.84

A portion of the library; rates above refer to the full screens.
